RecA intein inh = Mtb RecA intein splicing inhibitors, primary screen, biochemical, fluorescence, HTS. AID 2221, 2009. 290,000 compounds, 0.75% hits. Protein RecA (Mycobacterium tuberculosis (strain ATCC 25618 / H37Rv)), P9WHJ3. cell-free RecA intein splicing. inhibition, %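 (about 9 µM by stock and volumes)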; in the data active = inhibition above about 30%; inconclusive = no clear call, values can overlap the other calls;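 also: 0% = vehicle wells and 100% = reference inhibitor control wells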
Target sequence (P9WHJ3 whole entry, looked up): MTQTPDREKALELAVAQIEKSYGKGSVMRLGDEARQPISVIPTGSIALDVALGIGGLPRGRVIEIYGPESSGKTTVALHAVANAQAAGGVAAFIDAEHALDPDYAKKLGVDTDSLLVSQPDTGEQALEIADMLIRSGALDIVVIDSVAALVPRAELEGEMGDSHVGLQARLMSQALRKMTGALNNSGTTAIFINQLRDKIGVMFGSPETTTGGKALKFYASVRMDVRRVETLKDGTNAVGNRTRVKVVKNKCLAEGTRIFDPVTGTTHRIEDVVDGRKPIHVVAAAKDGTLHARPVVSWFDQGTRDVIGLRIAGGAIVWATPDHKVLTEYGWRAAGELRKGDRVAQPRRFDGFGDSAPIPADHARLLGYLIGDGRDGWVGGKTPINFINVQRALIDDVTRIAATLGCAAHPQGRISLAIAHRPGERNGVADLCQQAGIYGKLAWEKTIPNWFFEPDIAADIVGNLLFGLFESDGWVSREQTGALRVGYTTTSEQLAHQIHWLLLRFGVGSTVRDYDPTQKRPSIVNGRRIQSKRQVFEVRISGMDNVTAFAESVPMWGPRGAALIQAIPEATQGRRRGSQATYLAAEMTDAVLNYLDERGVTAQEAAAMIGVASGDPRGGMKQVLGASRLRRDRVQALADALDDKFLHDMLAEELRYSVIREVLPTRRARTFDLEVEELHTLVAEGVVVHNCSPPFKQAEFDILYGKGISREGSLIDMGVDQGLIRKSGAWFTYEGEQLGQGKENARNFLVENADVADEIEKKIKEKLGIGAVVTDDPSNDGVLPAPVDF
Arbovirus inh = antivirals against arbovirus infection, primary screen, cell-based, full library, 10K replicate subset. arbovirus infection cell-based antiviral screen. inhibition, % at 10 µM. 200,000 compounds, 0.37% hits. AID 1251, 2008;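 active = inhibition from about 30%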;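 also: bluetongue infection of BSR cells; cell survival read as ATP light after 72 h; 0% = infected wells without compound and 100% = uninfected wells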
YopH PTP inh = YopH tyrosine phosphatase inhibitors, primary screen, biochemical, fluorescence Ex485/Em525. inhibition, %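 (about 10 µM by stock and volumes)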. 140,000 compounds, 0.16% hits;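 active = inhibition of 50% or more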;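 also: controls were vehicle for no effect and minimum signal wells for full effect; inactives centre near -20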
Mtb H37Rv = M. tuberculosis H37Rv growth inhibitors, H37Rv strain (AID 1626) | one-dose inhibition, % at 10 µM; IC50 in µM for titrated hits | M. tuberculosis H37Rv growth inhibition; higher % means a stronger effect | 220,000 compounds, 0.95% hits;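 active = confirmed in a dose series; inconclusive = inhibition above 80% but not taken into the dose series; inactive = below 80% or under 30% at every dose of the series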;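 also: bacteria incubated seven days before Alamar blue readout; 0% = bacteria only wells and 100% = bacteria with antibiotic wells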
Mtb bLac sens = beta-lactam sensitization of Mtb H37Rv, H37Rv; M. tuberculosis H37Rv growth with meropenem, percent inhibition; hits of this screen are not shown here; inhibition, % at 25 µM; 330,000 compounds, 0.27% hits;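 active = about 74% or more and at least 40 points above the plate without the antibiotic, then above 30% in a dose series; inconclusive = first-round hits that could not be retested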;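 also: growth measured after seven days incubation then overnight dye step; 0% = bacteria only wells and 100% = bacteria with antibiotic; twin plates without the antibiotic show which effects depend on it; some results filed as inactive read as strong as hits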
Arbovirus inh repeat = recorded beside Arbovirus inh, whose call it bears; inhibition, %; measured here: 10K subset replicate screen; many hits read low in the repeat;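 first of two repeat runs on a subset; 0% = infected and 100% = uninfected wells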
Numbers without * were called inactive; ? = inconclusive; . = no result given.

SMILES	RecA intein inh	Arbovirus inh	YopH PTP inh	Mtb H37Rv	Mtb bLac sens	others
COc1cc2c(cc1OC)C1=C(C#N)CCC(=NC(=O)c3ccc(Cl)cc3)N1CC2	-6.1	7	-25	5%	17
COc1ccc(NC(=S)N(CCN2CCOCC2)Cc2ccccc2F)cc1	-1.4	18	.	2%	-3
O=C(NCc1ccccc1F)C1CCCN(S(=O)(=O)N2CCOCC2)C1 (centres undefined)	0.1	.	.	.	-1
O=C(CCC(=O)c1cccs1)OCc1nc2ccccc2s1	0.6	-3	-20	-9%	7
CS(=O)(=O)N1CCN(C(=O)c2cc(-c3cccs3)nc3ccccc23)CC1	1.1	-3	0	-6%	-4
O=c1oc2ccccc2c(N2CCCCC2)c1CN1CCCCC1	0.2	1	-15	2%	16
CC(C)NC(=O)NS(=O)(=O)c1cnccc1N1CCCCC1	2.0	1	-19	-7%	1
O=c1[nH]c(=O)n(C2CCCCCC2)c(O)c1C=NC1CCN(Cc2ccccc2)CC1	.	4	-7	7%	-1
O=C(c1ccccc1Br)N1CCN(c2ccccc2)CC1	2.4	-12	-3	-11%	?
CCOC(=O)C1(Cc2ccc(OC)cc2)CCN(C(=O)CN2CCN(CC)CC2)CC1	-0.8	2	.	-3%	-2
O=C(NCCc1ccco1)c1nn(Cc2ccccc2)c(=O)c2ccccc12	-1.0	10	-21	-2%	-6
COc1ccc(CN2CCNC(=O)C2CC(=O)NCCCn2cccn2)c(OC)c1 (centres undefined)	0.0	1	.	7%	8
COC(=O)CNC(=O)CCC(=O)N1CCN(C(c2ccccc2)c2ccccc2)CC1	-3.9	.	.	.	7
Cc1ccc(/C=C2\SC(=S)N(CCCC(=O)Nc3cc(C)on3)C2=O)cc1	-1.1	.	.	.	5
O=C(CSc1ccc2ccccc2c1)Nc1ccncc1	3.5	6	-5	.	81
COc1ccc2nc(NC(=O)CCc3nc(C4=CCN(C)CC4)no3)sc2c1	3.3	-2	-7	8%	-4	Arbovirus inh repeat=-3
Cc1cccc(N2CCN(S(=O)(=O)c3ccc4c(c3)CCN4C(=O)CCC(=O)O)CC2)c1C	.	3	-17	-3%	-1
Cc1ccc(C(=O)NNC(=O)c2nn(-c3ccc(F)cc3)ccc2=O)cc1	-1.9	.	.	-3%	-9
NCc1c(O)ccc2ccccc12	-16	.	.	-3%	-4
COc1ccc(-c2nnc(-c3ccccc3)o2)cc1OC	0.1	.	.	.	-2
CC1CCCN(C(=O)CSc2nnc(-c3cccs3)o2)C1 (centres undefined)	3.2	.	.	.	92
O=S1(=O)CCOC[C@H](CC2CCCCC2)N1Cc1ccccc1Br	11	.	.	.	0
CCOc1ccc(-n2cc(C(=O)NCc3ccco3)c3cc(OC)c(OC)cc3c2=O)cc1	7.4	-6	-41	-10%	-2
COC(=O)C1=C(C)NC(=O)NC1C1CC=CCC1 (centres undefined)	1.1	4	-52	8%	4	Arbovirus inh repeat=2
COC(=O)C1=C(C(=O)OC)[C@@H]2N(C)c3ccccc3[C@@]23C[C@@H](CO)N(C(=O)c2cccs2)C3=N1	-1.1	.	.	-10%	-9

Overlap with the part before: three compounds, then new ones.
SMILES	RecA intein inh	Arbovirus inh	YopH PTP inh	Mtb H37Rv	Mtb bLac sens	others
CCOc1ccc(-n2cc(C(=O)NCc3ccco3)c3cc(OC)c(OC)cc3c2=O)cc1	7.4	-6	-41	-10%	-2
COC(=O)C1=C(C)NC(=O)NC1C1CC=CCC1 (centres undefined)	1.1	4	-52	8%	4	Arbovirus inh repeat=2
COC(=O)C1=C(C(=O)OC)[C@@H]2N(C)c3ccccc3[C@@]23C[C@@H](CO)N(C(=O)c2cccs2)C3=N1	-1.1	.	.	-10%	-9
CC(=O)Nc1ccc2sc(C)nc2c1	-3.9	.	.	7%	-6
COc1ccc(CC(=O)Nn2c(-c3ccccc3)nc3ccccc3c2=O)cc1	0.0	14	19	0%	-8
CNC(=O)COC(=O)c1cc(-c2ccco2)nc2ccccc12	-5.3	.	.	.	0
Cc1cccc(OCC(=O)N2CCN(c3nnc(-c4ccccc4)c4ccccc34)CC2)c1	3.2	.	.	8%	48
COc1ccccc1N1CCN(C(=O)COc2cccc(C)c2C)CC1	-1.8	1	.	10%	5
COc1ccccc1OCCCC(=O)NC(C)c1ccccc1 (centres undefined)	1.9	1	.	-3%	-10
COc1ccc(-c2noc(CSc3nc4ccccc4c(=O)n3-c3ccc(C)cc3)n2)cc1	-1.0	-1	-27	5%	5
O=C(CN1CCN(C/C=C/c2ccccc2)CC1)NC(=O)NC1CCCCC1	-0.7	1	.	8%	87
Cc1ccc(C)c(Nc2nc3nonc3nc2N2CCOCC2)c1	0.9	9	-21	.	-3
CCC1CCCCN1CCCNC(=O)c1ccc(CS(=O)(=O)Cc2ccccc2F)o1 (centres undefined)	-6.7	10	-6	-2%	-13
Cc1ccc(Cn2ccc(=O)c(OCc3c(Cl)cccc3Cl)c2C)cc1	10	-32	-11	8.6µM*	100
COc1ccc(-c2cc3c(=O)n(CC(=O)NCc4ccccc4OC)ncn3n2)cc1	-4.9	.	.	.	1
O=C(NNC(=O)c1ccc(Cl)cc1Cl)Nc1ccccc1	0.8	5	9	4%	-4
Cn1nc([N+](=O)[O-])nc1Sc1ccc(Cl)cc1	0.5	-11	-8	14%	0
C=CCN(C(=O)c1ccccn1)C(C(=O)NCc1ccccc1)c1ccccc1F (centres undefined)	-1.9	3	.	-2%	3
CCc1ccc(N(C2C=CS(=O)(=O)C2)S(=O)(=O)c2ccccc2)cc1 (centres undefined)	2.2	1	-21	-4%	-3
CCCCCC(=O)Nc1ccc2oc(-c3cccnc3)nc2c1	1.4	-9	37	-3%	-20
CN(Cc1ccon1)Cc1cn(C)nc1-c1cccc(Cl)c1	0.8	-2	.	.	2
Fc1ccc(CNc2ncnc3c2cnn3-c2ccccc2)cc1	1.1	-11	11	7%	11
COc1ccc(CCNC(=O)COC(=O)COc2ccc(Cl)cc2)cc1OC	-0.5	13	.	-8%	10
Cc1cccc(C)c1-n1nnnc1S(=O)(=O)Cc1ccccc1Cl	.	17	18	4%	-2
Cc1nc2c(cc(Oc3ccc(S(=O)(=O)N4CCOCC4)cn3)c3ccsc32)s1	-0.7	4	-43	-8%	?
O=S(=O)(c1ccc(Cl)cc1)N1CCC(O)(CN2CCN(Cc3ccccc3)CC2)CC1	1.6	-20	.	-2%	-6
CCS(=O)(=O)c1ccc2oc(SCC(=O)NCc3ccccc3)nc2c1	1.9	5	.	1%	6
CNC(=O)c1cc(Nc2nnc(-c3ccc(C)c(S(N)(=O)=O)c3)c3ccccc23)ccc1OC	-17	.	.	.	5

(next part)
SMILES	RecA intein inh	Arbovirus inh	YopH PTP inh	Mtb H37Rv	Mtb bLac sens	others
Cc1cc2c(C)nc(Cc3ccccc3)nc2o1	4.2	-5	-10	10%	-16
CN(c1cccc(NC(=O)CSc2ccc(Cl)cc2)c1)S(C)(=O)=O	2.4	7	-20	2%	-9
CN1CC(c2ccccc2)Oc2ccccc2C1=S (centres undefined)	2.1	.	.	.	-7
CCCOc1ccc(/C=N/NC(=S)Nc2ccccc2[N+](=O)[O-])c(O)c1	0.6	-18	-22	0%	3
COC(=O)N/N=C/c1ccc(OCCSc2ccc(Cl)cc2)c(OC)c1	-0.6	2	-14	11%	3
O=C(CSc1nc2cc(Cl)ccc2s1)N1CCN(C(=O)c2ccco2)CC1	4.7	4	-154	?	75
CC(C)=NN1C(=O)c2ccccc2NC1(C)C	-2.4	.	.	-2%	-13
c1csc(CN2CCN(Cc3cccs3)C2c2cccs2)c1	0.8	-1	-47	1%	92
Cc1cccc(OCC(=O)O/N=C(\N)c2ccc(Br)cc2)c1	1.4	.	.	0%	-3
CCN(C(=O)c1cccc(F)c1)c1ccccc1C	-0.2	-2	-16	-10%	-2
CN(C)c1ccc(/C=C(\C#N)c2ccccn2)cc1	-19	-25	-30	19%	-1
Cn1c(=O)[nH]c(=O)c2c1nc(N1CCN(C(c3ccccc3)c3ccccc3)CC1)n2CCO	1.0	.	.	.	7
Cc1cccc(NC(=S)N2CCCCCC2)c1	0.1	2	-26	2%	9
CCCN(CCC)S(=O)(=O)c1ccc(C(=O)Nc2nnc(COC)o2)cc1	2.9	-1	.	-5%	-1
COc1ccccc1-n1c(CCC(=O)O)ccc1-c1ccccc1	4.9	.	.	.	-5
COc1ccccc1Nc1nnc(C)c(=O)[nH]1	0.4	7	3	-11%	-5
N[C@@H](CO)c1cn([C@@H](Cc2cc3ccccc3[nH]2)C(=O)N2CCNCC2)nn1	-2.7	.	.	-2%	-1
CCc1ccc(-c2nc(C)c(CCO)c(=O)[nH]2)cc1	0.0	-4	.	-5%	2
CCc1ccc2n(-c3ccc(OC)cc3)c([S-])c(C(=O)Nc3cc(C)cc(C)c3)[n+]2c1	0.0	.	.	2%	3
Cc1nn(CC(=O)Nc2ccc3c(c2)oc2ccccc23)c(=O)c2ccccc12	.	-27	-34	.	14
COc1ccccc1N1CCN(C(=O)CN(Cc2ccc(Cl)cc2)S(C)(=O)=O)CC1	-2.5	9	-8	14%	-4
COCCn1c(=S)[nH]c2cc(C(=O)N3CCN(c4cccc(Cl)c4)CC3)ccc2c1=O	-5.9	.	.	.	0
O=C(COC(=O)CNC(=O)c1ccc(Cl)cc1Cl)NCC1CCCO1 (centres undefined)	-3.7	.	.	.	-2
CC(=O)c1cc(NC(=O)c2ccccc2)c(=O)oc1/C=C/N(C)C	-9.4	0	-22	8%	6
CCOc1ccc(NC(=O)CSc2ncnc3c2sc2ccccc23)cc1	-3.4	-6	-4	-6%	-6

Sorted by molecular weight (highest first): some entries from above.
SMILES	RecA intein inh	Arbovirus inh	YopH PTP inh	Mtb H37Rv	Mtb bLac sens	others
O=C(CSc1nc2cc(Cl)ccc2s1)N1CCN(C(=O)c2ccco2)CC1	4.7	4	-154	?	75
CCCN(CCC)S(=O)(=O)c1ccc(C(=O)Nc2nnc(COC)o2)cc1	2.9	-1	.	-5%	-1
O=C(COC(=O)CNC(=O)c1ccc(Cl)cc1Cl)NCC1CCCO1 (centres undefined)	-3.7	.	.	.	-2
CN(C)c1ccc(/C=C(\C#N)c2ccccn2)cc1	-19	-25	-30	19%	-1

Next structures follow:
SMILES	RecA intein inh	Arbovirus inh	YopH PTP inh	Mtb H37Rv	Mtb bLac sens	others
COc1ccc(OCc2nnc(SCC(=O)O)n2N)cc1	0.2	3	-56	-12%	4	Arbovirus inh repeat=-2
COc1ccccc1NS(=O)(=O)c1ccc(N/N=C/C=C/c2ccccc2[N+](=O)[O-])c([N+](=O)[O-])c1	0.6	-1	.	-1%	-1
COc1ccc(/C=C/C(=O)NC(=S)NNC(=O)[C@H]2C[C@@H]2c2ccccc2)cc1OC	0.1	.	.	.	-3
NC1=NC(=O)C(CC(=O)Nc2ccc3c(c2)OCO3)S1 (centres undefined)	-1.7	4	.	-6%	-10
COc1cc(OC)c(OC)cc1/C=C1\Oc2cc(OS(C)(=O)=O)ccc2C1=O	-1.8	.	.	-10%	-4
COP(=O)(OC)C(NC(=O)C(C)(C)C)=C(Cl)Cl	0.1	6	-22	-4%	10
N#Cc1cccc(C(c2nnnn2C2CCCC2)N2CCC(Cc3ccccc3)CC2)c1 (centres undefined)	6.6	-2	-26	-1%	-5
COc1ccccc1/C=N/NC(=O)c1cccc(OC(F)(F)C(F)F)c1	-0.3	-6	-33	9%	-1
CSc1ccc(/C=N/NC(=O)CNc2ccc3ccccc3c2)cc1	11	-11	-17	64%	98
Cc1nnc(SCc2ccccc2F)n1NCc1cccs1	-0.3	5	-5	-1%	-11
COC(=O)c1ccc(NC(=O)CNC(=O)C2CCCCC2)c(C)c1	-1.4	2	-8	-22%	-3
C/C(N)=C(/C#N)C(=O)CSc1nnc(-c2ccccc2)n1C	-0.1	.	.	-2%	-3
Cc1ccc(NS(=O)(=O)c2ccc3c(c2)c(=O)n(C)c(=O)n3C)cc1F	-3.1	1	0	0%	-3
Cc1cc(C)n(CCC(=O)Nc2ccc3c(c2)OCCO3)n1	-0.7	.	.	.	0
Cc1ccc(S(=O)(=O)NCC(=O)NCC(=O)OCC(=O)NC(=O)NC(C)(C)C)cc1C	-1.0	1	.	2%	4
CC1CCCC(C)N1C(=O)c1cc(F)c(F)cc1Cl (centres undefined)	-2.9	-1	7	-2%	-4
O=C(O)C1CCCN1S(=O)(=O)c1ccc2[nH]c(=O)c(=O)[nH]c2c1 (centres undefined)	-0.8	5	2	-12%	8
COP(=S)(OC)SCN1C(=O)c2ccccc2C1=O	1.2	2	-50	-6%	5	Arbovirus inh repeat=-1
O=C(c1cccs1)N1CCC(c2ccccc2)C1 (centres undefined)	0.1	2	16	-4%	0
COc1cc(CN2CCSCC2)cc(OC)c1OC	3.0	3	-31	-3%	-1
CCc1ccc(Nc2ncc3c(n2)CC(C)(C)CC3=O)cc1	.	.	.	-2%	-3

These rows are one share of the data; rates above refer to the full screens.
